# Cardio protect: cardioprotection against H2O2-induced cell death, primary screen, uHTS, H9c2 cells, ATPLite luminescence. hit rate 0.63% among 360,000. H9c2 cardiomyocytes, H2O2 injury protection, 2 h. protection from H2O2 cell death, % at 20 µM;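 active means compounds giving at least 50% protection of heart cells from peroxide-induced death in the single-dose screen, raw or plate-pattern-corrected value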;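 further: 0% = DMSO wells with peroxide and 100% = DMSO wells without peroxide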
# Exocytosis inh: LAMP-1 surface exposure blockers, TALL-104 cells – cell-based, flow cytometry, MLPCN library, primary screen | TALL-104 LAMP-1 surface exposure; cells stimulated with thapsigargin and PMA | inhibition, % at 10 µM | hit rate 0.66% among 360,000;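 active means inhibition above about 55%, limit read from the data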
# hiPSC survival: enhancers of single-cell hiPSC survival, primary screen, ATPlite luminescence. hit rate 0.044% among 360,000. AID 602274, 2012. 100% = ROCK inhibitor wells, 0% = DMSO. survival enhancement, % at 20 µM; in the data active means survival enhancement above about 18%;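 further: cells exposed to compounds for 16 hours before the ATP read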
# Glyco luc inh: increase of ERlucT glycosylation luciferase signal, primary screen, N-linked glycosylation inhibitor project, D54 ERlucT cells, luminescence, set 2; AID 588692, 2011; reporter increase, % at 12.5 µM; hit rate 0.23% among 360,000; D54 ERlucT glycosylation luciferase reporter, 24 h; percent of 100 nM tunicamycin response;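 active means mean luciferase reporter signal, scaled so untreated is 0 and the glycosylation-blocking control 100, at or above a set limit in every replicate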;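 further: luciferase carries N-glycosylation sites so blocking glycosylation raises the light; 0% = median of neutral control wells and 100% = median of 100 nM tunicamycin wells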
# * hit, by the source's call; & = joins results of further samples.
# A first look:
nr	Structure	Cardio protect	Exocytosis inh	hiPSC survival	Glyco luc inh
1	COc1ccc2cc([C@H](C)C(=O)O)ccc2c1	-7	1	-0.6	1
2	O=C(O)c1cccnc1SCCc1ccccc1	-2	1	0.7	-10

# This part in full, from the start:
nr	Structure	Cardio protect	Exocytosis inh	hiPSC survival	Glyco luc inh
1	COc1ccc2cc([C@H](C)C(=O)O)ccc2c1	-7	1	-0.6	1
2	O=C(O)c1cccnc1SCCc1ccccc1	-2	1	0.7	-10
3	CCN(CC)CC(=O)Nc1c(C)cc(C)cc1C	-5	-1	1.1	-1
4	Clc1ccc(C(Cn2ccnc2)OCc2c(Cl)cccc2Cl)c(Cl)c1 (configuration not stated)	-14	11	3.5	-9
5	O=C(N/N=C/c1ccc([N+](=O)[O-])s1)c1cccnc1	2	2	-2.7	3
6	NCC(O)c1ccc(O)c(O)c1 (configuration not stated)	14	0	0.7	-1
7	CCc1cc(C(N)=S)ccn1	-8&3	-5&-4	4.1&0.0	-2&-1

# Part of the list above, with one line to a screen:
3. CCN(CC)CC(=O)Nc1c(C)cc(C)cc1C
4. Clc1ccc(C(Cn2ccnc2)OCc2c(Cl)cccc2Cl)c(Cl)c1 (configuration not stated)

screen / no.	3	4
Cardio protect	-5	-14
Exocytosis inh	-1	11
hiPSC survival	1.1	3.5
Glyco luc inh	-1	-9

# Single records, as listed above:
# Results for `NCC(O)c1ccc(O)c(O)c1` (configuration not stated) = Cardio protect = 14; Exocytosis inh = 0; hiPSC survival = 0.7; Glyco luc inh = -1
# Results for `O=C(O)c1cccnc1SCCc1ccccc1` = Cardio protect = -2; Exocytosis inh = 1; hiPSC survival = 0.7; Glyco luc inh = -10

# Some of the compounds tested. The share of hits here may be higher or lower than overall.
